Calb FLC – C. albicans growth modulation with fluconazole. C. albicans CaCi-2 (fluconazole-resistant clinical isolate) + fluconazole, Alamar Blue growth, 48 h. growth inhibition, % (concentration not given with the values). 300,000 tested, 0.57% active;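 active = most replicates above 75%; inconclusive = exactly half above 75%; inactive = most below 75%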;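 note: all wells also contain fluconazole at 8 µg/ml as a sub-toxic cotreatment; 0% = median of DMSO wells and 100% = median of geldanamycin control wells; wells of about 8 µL received 7.5 nL stock; the first replicate is given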
Beta2AR agonist – human beta-2 adrenergic receptor agonism by FAP; Am2.2-beta2AR cells, FAP receptor internalization, flow cytometry; reference of the scale not given here; response, % (no concentration beside the values); 340,000 tested, 0.43% active; AID 504454;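 active = response above a set limit, near 3 SD of response in nonfluorescent compounds, cut at about 42% in these data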;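 note: stock transfer was 100 nL into about 11 µL; a reference agonist was the positive control; negative values mostly stem from fluorescent compounds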
Target sequence (P07550 whole entry, looked up): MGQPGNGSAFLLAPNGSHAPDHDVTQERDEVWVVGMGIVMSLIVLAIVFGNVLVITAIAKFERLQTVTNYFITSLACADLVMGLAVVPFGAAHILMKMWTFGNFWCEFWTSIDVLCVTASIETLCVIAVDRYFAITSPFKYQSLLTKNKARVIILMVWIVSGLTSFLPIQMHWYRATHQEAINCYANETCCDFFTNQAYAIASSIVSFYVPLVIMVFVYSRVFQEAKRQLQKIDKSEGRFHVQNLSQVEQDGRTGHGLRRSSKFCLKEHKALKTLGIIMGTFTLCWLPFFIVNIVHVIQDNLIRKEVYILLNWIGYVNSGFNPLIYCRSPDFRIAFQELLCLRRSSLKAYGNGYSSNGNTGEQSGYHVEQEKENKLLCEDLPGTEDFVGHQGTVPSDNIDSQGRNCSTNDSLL
HNF4A DNA FP – change in binding of human HNF4 alpha to DNA | P41235 | HNF4a-FITC DNA binding, fluorescence polarization, 1 h | activity change, % at 10 µM | 360,000 tested, 0.3% active; in the data active = activity change above about 30%, passing the limit was not always enough;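 note: controls were the assay level and a saturating level of protein; the project sought stronger binding though the title names inhibitors; some compounds called inactive have numbers as strong as hits; positive values seem to mean higher polarization but the record does not say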
Target sequence (P41235 whole entry, looked up): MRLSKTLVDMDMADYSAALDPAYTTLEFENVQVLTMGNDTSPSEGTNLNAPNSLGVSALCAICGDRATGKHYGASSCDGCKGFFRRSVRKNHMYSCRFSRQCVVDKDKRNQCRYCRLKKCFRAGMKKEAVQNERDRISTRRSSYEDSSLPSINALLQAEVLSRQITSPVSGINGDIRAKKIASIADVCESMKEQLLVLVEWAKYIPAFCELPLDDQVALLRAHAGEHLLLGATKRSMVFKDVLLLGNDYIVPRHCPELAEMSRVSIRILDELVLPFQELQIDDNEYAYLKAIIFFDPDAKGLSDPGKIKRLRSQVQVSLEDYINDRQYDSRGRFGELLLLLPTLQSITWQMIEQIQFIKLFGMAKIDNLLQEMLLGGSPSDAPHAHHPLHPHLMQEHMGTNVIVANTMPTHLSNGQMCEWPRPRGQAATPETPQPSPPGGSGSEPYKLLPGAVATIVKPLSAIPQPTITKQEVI
Vif TR-FRET – HIV-1 Vif–A3G interaction blockers – biochemical, TR-FRET, GST-Vif 1-94, biotin-A3G peptide, dose response retest, primary screen (AID 1117319) | inhibition, %; hits with a dose series show IC50 in µM | TR-FRET GST-Vif / biotin-A3G peptide binding; higher % means a stronger effect; test concentration not given here; strong numbers were not always called active | 260,000 tested, 0.57% active;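 active = above the screen mean plus three standard deviations and confirmed in dose response; inconclusive = results disagree or hit not tested in dose response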;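 note: Vif residues 1-94 fused to GST binding biotinylated APOBEC3G peptide 110-148; 0% = full assay without inhibitor and 100% = GST in place of GST-Vif; retest series ran down from 100 µM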
ALR inh – human ALR oxidase inhibition via reduced H2O2. P55789. inhibition, % (no concentration beside the values). purified ALR, DTT oxidation, H2O2 HRP-luminol luminescence. 290,000 tested, 3.8% active;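 active = mean and each replicate at 75% or more; inconclusive = only one of the two met; inactive = neither met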;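 note: stock transfer was 7.5 nL into about 7.5 µL; 0% = neutral wells and 100% = wells with inactivated enzyme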
Target sequence (P55789 whole entry, looked up): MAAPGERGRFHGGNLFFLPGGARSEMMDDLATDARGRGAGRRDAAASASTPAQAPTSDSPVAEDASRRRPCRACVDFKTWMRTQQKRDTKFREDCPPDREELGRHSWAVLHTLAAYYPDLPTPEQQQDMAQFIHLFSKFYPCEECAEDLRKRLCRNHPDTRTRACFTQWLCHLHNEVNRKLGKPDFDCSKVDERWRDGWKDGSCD
RanGTP-Imp inh – disruptors of Ran-importin-beta complex formation – biochemical, FRET, CFP-Ran, YFP-importin-beta, homogeneous, primary screen | cell-free CFP-Ran/YFP-importin-beta FRET ratio | 300,000 tested, 1.1% active | inhibition, % (test concentration not listed);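 active = most replicates above 15%; inconclusive = exactly half above 15%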;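 note: 0% = DMSO wells and 100% = Ran loaded with GDP instead of GTP; wells of about 40 µL received 100 nL stock; the first replicate is given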
LANA-H2A inh – blocks KSHV LANA binding to histone H2A/H2B. cell-free LANA-H2A/H2B peptide, fluorescence polarization. AID 2629. inhibition, % (concentration not given with the values). 320,000 tested, 0.6% active. Q9QR71; in the data active = inhibition mostly above about 10%, no sharp cut-off; inactive = mostly below about 6.7%;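 note: stock transfer was 7.5 nL into about 10 µL; 0% = median of vehicle wells and 100% = median of positive control wells; one replicate is shown; the record names a cut of 25% in any replicate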
An asterisk follows results filed as active; ? = inconclusive; / = not tested or not shown; & = joins results of further samples.

Order of results: Calb FLC | Beta2AR agonist | HNF4A DNA FP | Vif TR-FRET | ALR inh | RanGTP-Imp inh | LANA-H2A inh
> CCc1nnnn1-c1ccc([N+](=O)[O-])cc1C
 : 1 | 6 | -2.1 | 8% | -13 | -0.5 | 7.0
> CNc1ccccc(-c2ccc3cc4c(cc3n2)OCO4)c1=O
 : 32 | 3 | -3.7 | 16µM* | 0 | 11 | 1.7
> O=C(CN1CCN(c2ccc(F)cc2)CC1)c1cccs1
 : -6 | 2 | -0.6 | 10% | 8 | 4.0 | -0.4
> Cc1coc2c1c(C)cc1oc(=O)c(CC(=O)N[C@@H](C)C(=O)O)c(C)c12
 : -5 | 0 | 1.4 | 2% | -2 | -3.0 | 5.7
> O=C(c1n[nH]c(=O)c2ccccc12)N1CCOCC1
 : -14 | 1 | -1.1 | -2% | 2 | -0.8 | 5.0
> O=C(NCC1CCCO1)c1c(O)nc2sccn2c1=O (stereo not given)
 : 10 | 20 | 3.0 | -9% | / | 2.0 | /
> O=C(Nc1ccc(N2CCOCC2)c(S(=O)(=O)Nc2ccccc2Cl)c1)c1ccccc1
 : / | 12 | -0.7 | / | 3 | / | 0.5
> Cc1ccc(OCCC(=O)OCC(=O)Nc2ccc3[nH]c(=O)[nH]c3c2)cc1
 : 20 | -4 | -1.8 | 1% | -2 | -0.6 | 6.5
> O=C(c1ccc(Cl)c([N+](=O)[O-])c1)N(Cc1cccc(Cl)c1)C1CCS(=O)(=O)C1 (stereo not given)
 : 2 | 5 | -5.8 | -3% | / | 1.0 | /
> O=C(c1cscn1)N1CCCC(N2CCN(c3ccc(F)cc3)CC2)C1 (stereo not given)
 : -16 | 3 | 2.5 | 2% | ? | -1.3 | -1.1
> Cc1cc(S(=O)(=O)Nc2ccc3cn[nH]c3c2)c(C)cc1Cl
 : -6 | 13 | -1.3 | / | 0 | 0.9 | 4.2
> CCCC(=O)CN1C(=O)C2(OCCO2)c2ccccc21
 : -8 | -2 | 1.8 | -6% | / | -1.9 | -1.5
> NC(=O)c1oc2ccccc2c1NC(=O)C1CCCCC1
 : -5 | -14 | 1.2 | 5% | 96* | 5.3 | -0.5
> Cc1cc(C)nc(NC(=O)c2ccc(Cl)cc2[N+](=O)[O-])c1
 : 3 | -8 | 0.1 | -10% | -7 | 1.0 | -5.0
> COc1ccc(OC)c(C(=O)CSc2nc3cccnc3n2C)c1
 : 8 | -7 | 1.9 | 11% | 0 | 3.1 | 0.6
> CNc1c([N+](=O)[O-])cnn1-c1ccccc1Cl
 : -17 | 7 | -5.2 | 14% | -4 | ? | -0.4
> CC1CC(C)(C)NC(=S)N1CCC(=O)NCc1ccc(F)cc1 (stereo not given)
 : -10 | -2 | 0.4 | / | 1 | -7.8 | 1.4
> COc1ccc(C2=NCCn3nc4cc(OC)ccc4c32)cc1
 : / | -8 | 2.2 | / | -51 | / | -0.4
> COCCNC(=S)N(CCN(C)C)Cc1cc2cc3c(cc2[nH]c1=O)OCO3
 : -6 | -4 | -0.5 | 2% | -5 | -15 | -0.1
> CCOC(=O)c1cnc2ccccc2c1Nc1ccc(C(=O)O)cc1
 : 3 | -4 | -3.2 | 0% | -14 | 0.1 | 4.9

Two compounds picked at random from those above:
Order of results: Calb FLC | Beta2AR agonist | HNF4A DNA FP | Vif TR-FRET | ALR inh | RanGTP-Imp inh | LANA-H2A inh
> CNc1ccccc(-c2ccc3cc4c(cc3n2)OCO4)c1=O
 : 32 | 3 | -3.7 | 16µM* | 0 | 11 | 1.7
> COCCNC(=S)N(CCN(C)C)Cc1cc2cc3c(cc2[nH]c1=O)OCO3
 : -6 | -4 | -0.5 | 2% | -5 | -15 | -0.1

New compounds follow
Order of results: Calb FLC | Beta2AR agonist | HNF4A DNA FP | Vif TR-FRET | ALR inh | RanGTP-Imp inh | LANA-H2A inh
> CCOC(=O)c1c(C)c(C(=O)NCCOC)c(C)n1CC
 : 18 | -1 | 4.8 | 4% | -6 | 4.4 | 0.5
> COc1ccc(C(CC(=O)O)NC(=O)Nc2ccccc2)cc1OC (stereo not given)
 : -4 | -7 | -3.7 | 2% | -5 | -3.3 | 2.0
> N#C/C(=C\c1ccc([N+](=O)[O-])cc1)C(=O)Nc1ccccc1O
 : 14 | 12 | 0.1 | / | 86* | 0.5 | 3.4
> CCNc1nc(OC)nc(SCC(N)=O)n1
 : 3 | -4 | 0.9 | 5% | -6 | 11 | 2.0
> CCN1CNC(=S)N(c2cccc(C)c2C)C1
 : -1 | -3 | -3.8 | -3% | -21 | 1.6 | -0.9
> CN(Cc1cnn(C)c1)C(=O)C1CCC(=O)N(Cc2cccc(F)c2)C1 (stereo not given)
 : -7 | -3 | 2.5 | 5% | -9 | 0.0 | 0.9
> Nc1ccc2c(c1)C(=O)c1cc(Cl)c(Cl)cc1-2
 : / | -6 | -0.8 | 28% | / | / | /
> CCc1ccccc1NC(=O)c1ccccc1N1C(=O)C2C3C=CC(C3)C2C1=O (stereo not given)
 : 6 | 3 | -1.0 | / | 0 | 1.6 | -2.8
> CCOCCCNC(=O)C1CC(=O)N(CCc2ccccc2)C1 (stereo not given)
 : -1 | 6 | -2.0 | 2% | -3 | 0.4 | 3.8
> Cc1ccc(S(=O)(=O)NC(=O)NN2CC3CCCC3C2)cc1 (stereo not given)
 : -5 | 2 | 7.8 | -1% | / | 4.7 | 3.2
> COc1ccc(CCNS(=O)(=O)c2ccc3c(c2)NC(=O)CCS3)cc1OC
 : -2 | -1 | -2.4 | / | -4 | 4.9 | -4.3
> CS(=O)(=O)N1CCN(c2ccccc2NC(=O)C(c2ccccc2)c2ccccc2)CC1
 : -14 | 1 | 4.5 | 2% | -5 | ? | 1.9
> Cc1ccc(S(=O)(=O)N2CCN(C(=O)CSc3nnnn3C)CC2)c(C)c1
 : -3 | -1 | 4.5 | -3% | -2 | -2.6 | -3.5
> COc1ccc(C2=NN(c3nc(-c4ccccc4)c(CC(=O)O)s3)C(c3ccco3)C2)cc1 (stereo not given)
 : / | 7 | 19 | ? | 3 | / | /
> COc1cc(NC(=O)c2cnc(N)s2)cc(C(=O)Nc2cccc(C(F)(F)F)c2)c1
 : -5 | / | -0.7 | -3% | 5 | -1.6 | 8.5
> Cc1cccc(NC(=S)NNC(=O)c2csc3c2CCCC3)c1
 : 50 | -3 | -0.4 | 6% | 3 | -3.9 | -6.0
> Cn1cnnc1SC1c2cccc3cccc(c23)C1NS(=O)(=O)c1ccccc1 (stereo not given)
 : 33 | 4 | -2.1 | / | 10 | -0.4 | -3.9
> COc1ccc(CNC(=O)Cn2cccc2C(=O)c2ccccc2C)cc1
 : -1 | 10 | 2.8 | / | -3 | 1.8 | -3.7
> CNc1nc(-c2ccccn2)nnc1-c1ccccc1
 : -22 | 0 | -2.4 | 18% | 0 | 4.0 | 2.9
> CC(=O)SCC(C)C(=O)NCc1ccccc1 (stereo not given)
 : -3 | 26 | -0.7 | -3% | -5 | ? | 4.7

The list goes on.
Order of results: Calb FLC | Beta2AR agonist | HNF4A DNA FP | Vif TR-FRET | ALR inh | RanGTP-Imp inh | LANA-H2A inh
> COc1ccccc1OCC(=O)N/N=C1/C=C(C)CC1
 : 7 | 3 | -1.3 | -5% | 46 | ? | 4.0
> CCOc1ncccc1C(=O)N1CCN(c2cc(Cl)ccc2C)CC1
 : 24 | 21 | -1.7 | -9% | -6 | -2.2 | -5.5
> COc1ccc(-c2ncncc2-c2csc(C)n2)c(O)c1OC
 : 0 | -8 | 0.1 | 0% | 12 | 5.3 | -11
> Cc1cccc(-n2c(Cc3cc(=O)[nH]c(=O)[nH]3)nnc2SCC(=O)N2CCc3ccccc32)c1
 : 8 | -3 | 6.4 | / | -3 | 2.4 | 4.0
> CCOc1ccccc1OCCCC(=O)Nc1nc2ccccc2[nH]1
 : -3 | -11 | -7.6 | -12% | 0 | 1.0 | 1.6
> CC(C)(C)NC1=CC(=O)OC12CCCCC2
 : -1 | 8 | 0.9 | 1% | -4 | -1.5 | 3.3
> CCc1ccc(Nc2n[n+](-c3ccccc3)c(-c3ccc(OC)c(Br)c3)s2)cc1
 : -12 | 2 | -1.4 | / | / | -4.9 | -2.2
> CCOC(=O)c1c(/N=C/C2C(=O)CC(C)(C)CC2=O)sc(C)c1C
 : 8 | -4 | -0.4 | / | / | -0.2 | /
> O=C(NCc1ccccc1Cl)C1CCC(=O)N(C2CC2)C1 (stereo not given)
 : -24 | -2 | -0.8 | ? | -9 | 2.5 | -4.5
> N#Cc1ccc(-c2csc(NC(=O)C3CC3)n2)cc1
 : -11 | -12 | 4.1 | -42% | -8 | -0.8 | 4.5
> CCOc1ccc(NS(=O)(=O)c2ccc(NC(=S)NC(=O)CC(C)C)cc2)cc1
 : 35 | 16 | 2.8 | 30% | 0 | 4.6 | 3.4
> COc1ccc(NC(=O)c2ccccc2C)cc1
 : -2 | 6 | 2.1 | / | 0 | 5.4 | -2.5
> O=C(CSc1ccccn1)NCc1ccc2c(c1)OCO2
 : -29 | 1 | -1.1 | 2% | -20 | 0.7 | 4.8
> CCOc1ccc2nc(NC(=O)CSCC(=O)Nc3cc(C)on3)sc2c1
 : / | -1 | 5.0 | -1% | -5 | ? | -1.9
> Cc1ccc(C(OC(=O)c2ccco2)C(=O)NC2CCCC2)cc1 (stereo not given)
 : -18 | -4 | -2.3 | / | -1 | 1.1 | 4.4
> Cc1c(C(=O)O)oc2c1C(O)CC(C)(C)C2 (stereo not given)
 : -7&8 | 12&-7 | 1.3&-4.4 | 14%&3% | -8&-12 | -2.8&8.4 | 7.3&2.7
> O=C(C1=C(O)C(=O)N(CCN2CCOCC2)C1c1ccc([N+](=O)[O-])cc1)c1cccs1 (stereo not given)
 : -3 | 4 | -3.7 | -1% | 19 | -3.3 | 2.3
> O=C(Nc1cccc(F)c1)c1sc(Cl)nc1-c1ccccc1
 : 23 | -32 | 1.5 | -264% | 2 | 0.2 | 1.1
> C[C@@H]1NC(=O)[C@H](CCCN=C(N)N)NC(=O)c2cc([N+](=O)[O-])cc(I)c2NCCC[C@@H](C(N)=O)NC1=O
 : 0 | -2 | -2.3 | 8% | -2 | -0.3 | 2.5
> CCNc1nc(NC(C)C)nc(Oc2ccc(OCCOc3ccc(C)cc3)nn2)n1
 : 7 | 14 | -1.8 | -10% | 0 | -1.7 | 0.3

Entries of single compounds as entered above. Order of values: Calb FLC	Beta2AR agonist	HNF4A DNA FP	Vif TR-FRET	ALR inh	RanGTP-Imp inh	LANA-H2A inh
Record of CCOc1ncccc1C(=O)N1CCN(c2cc(Cl)ccc2C)CC1 → 24	21	-1.7	-9%	-6	-2.2	-5.5
Record of CCNc1nc(NC(C)C)nc(Oc2ccc(OCCOc3ccc(C)cc3)nn2)n1 → 7	14	-1.8	-10%	0	-1.7	0.3
Record of O=C(CSc1ccccn1)NCc1ccc2c(c1)OCO2 → -29	1	-1.1	2%	-20	0.7	4.8

Later entries:
Order of results: Calb FLC | Beta2AR agonist | HNF4A DNA FP | Vif TR-FRET | ALR inh | RanGTP-Imp inh | LANA-H2A inh
> CN(Cc1ccc(Br)cc1)C(=O)CCN1C(=O)c2cccc([N+](=O)[O-])c2C1=O
 : -1 | 6 | 3.9 | -2% | -1 | 5.0 | 3.2
> O=C(CSc1nnc(COc2ccccc2F)n1-c1ccccc1)NC1CCS(=O)(=O)C1 (stereo not given)
 : -8 | 3 | 3.1 | 8% | 4 | -5.4 | 4.0
> CCc1nc(NC(=O)NS(=O)(=O)c2ccccc2C(=O)OC)nc(OC)n1
 : 21 | 3 | -0.9 | -4% | 6 | -1.7 | -3.5
> CN(C)c1ccc(C(CNC(=O)COc2ccc(Cl)cc2)N2CCCC2)cc1 (stereo not given)
 : 5 | -7 | 5.7 | / | 32 | 0.0 | -2.7
> N#CCCN(C(=O)CSc1nc(-c2ccccc2)cn1N)c1ccc(F)cc1
 : -3 | 2 | -2.5 | -3% | -8 | 1.5 | -0.7
> O=C(Cc1ccc([N+](=O)[O-])cc1)Nc1cccc(C(=O)N2CCCC2)c1
 : / | -6 | 1.8 | / | 5 | / | 1.6
